Compound activity: PubChem, ICCB-Longwood Screening Facility, Harvard Medical School
Ecoli growth: E. coli growth inhibition; OD600 absorbance (test concentration not listed); actives 0.21% (n = 330,000); Escherichia coli growth, OD600, 23 h; active compounds read low; AID 1053175;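 active = OD600 absorbance below the run mean of sample wells minus 3.6 SD, in any replicate, cut at about 0.56 in these data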;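 note: stock transfer was 300 nL into about 60 µL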
* = called active by the depositor; & = joins results of further samples. Only part of the results is shown, so the mix of outcomes need not match the whole.

Molecule,Ecoli growth
C#C[C@]1(O)CCC2C3CCc4cc(OC)ccc4C3CC[C@@]21C (some centres undefined),0.65
CNCC1Oc2c(NS(=O)(=O)c3ccccc3)cccc2C(=O)N(C(C)CO)CC1C (centres undefined),0.69
O=C(CC1NS(=O)(=O)OC2CCCCC12)c1ccccc1 (centres undefined),0.7
CC(=O)c1ccc(NC=CC(=O)c2ccc(C)cc2)cc1,0.71
CC(C)N1CCN(c2ccc(OCC3CO[C@](Cn4cncn4)(c4ccc(Cl)cc4Cl)O3)cc2)CC1 (some centres undefined),0.67
CC(NC(=O)c1nc[nH]c1C(=O)NCC(=O)OC(C)(C)C)C(=O)OCc1ccccc1 (centres undefined),0.66
CCC(=O)c1cn(C(=CC(=O)OC(C)(C)C)CCC(OC)OC)cc1CC,0.64
Cn1c(N)c(C(=O)COC(=O)C2CCCN2S(=O)(=O)c2ccc(Cl)cc2)c(=O)n(C)c1=O (centres undefined),0.71
O=C1NC(=O)C(=Cc2ccccc2Oc2ccc(Cl)cc2)S1,0.71
COc1ccc(C2C=CCN(Cc3ccc(N(C)C)cc3)C(C)C(=O)N2Cc2ccc(F)cc2)cc1 (centres undefined),0.64
O=C1CC2c3c(cccc3CN1Cc1ccc(Cl)cc1)CC(O)C2O (centres undefined),0.7
CC(C)(C)C(O)C=Cc1ccc2c(c1)OCO2 (centres undefined),0.69
CCN(CC)C(=O)c1[nH]cnc1C(=O)NC(C)c1ccccc1 (centres undefined),0.71&0.71
CC=CC=CC(=O)N1CC2(CC(c3cccc(NC(=O)COc4ccc(Cl)cc4)c3)=NO2)CC1C(N)=O (centres undefined),0.66
CN1C(=O)C2C(C=Cc3ccccc3)N3C(=O)CN(Cc4ccc(-c5ccccc5)cc4)C(=O)[C@@]3(C)C2C1=O (some centres undefined),0.69
O=C(NCc1nc2ccccc2[nH]1)C1=CC(c2coc3ccccc3c2=O)CC(OCc2ccc(CO)cc2)O1 (centres undefined),0.68
C[C@@]12C(=O)Nc3cc(F)c(F)cc3C(=O)N1C1c3cc(Cl)ccc3OCC1C2c1ccccc1 (some centres undefined),0.7
CCCCC(=O)N1CC=CC(c2ccc(OC)cc2)N(Cc2ccc(F)cc2)C(=O)C1Cc1ccccc1 (centres undefined),0.72
CC1COC(=O)CCCCC=CCC(CC(=O)N(CCO)Cc2ccccc2)C(=O)N1 (centres undefined),0.72
O=C1C=C(c2cc3ccccc3s2)CC(c2ccc(F)cc2)C1 (centres undefined),0.73
N#C[C@]1(S(=O)(=O)c2ccccc2)CC2ON=C(c3cccc(Br)c3)C2C1 (some centres undefined),0.71
CC(C)CCCN1C(N(C)C)=NCC1Cc1ccccc1 (centres undefined),0.65
CCN(CC)CCCN=C1NC(c2cccc(F)c2)C(C(=O)OC)=C(C)N1Cc1ccccc1 (centres undefined),0.69
C[C@@]12C(=O)N(Cc3ccc(Cl)cc3)CC(=O)N1C1c3ccccc3OCC1C2c1ccccc1 (some centres undefined),0.72

Entries shown so far that have a tert-butyl group:
Molecule,Ecoli growth
CC(NC(=O)c1nc[nH]c1C(=O)NCC(=O)OC(C)(C)C)C(=O)OCc1ccccc1 (centres undefined),0.66
CCC(=O)c1cn(C(=CC(=O)OC(C)(C)C)CCC(OC)OC)cc1CC,0.64
CC(C)(C)C(O)C=Cc1ccc2c(c1)OCO2 (centres undefined),0.69

(more compounds)
Molecule,Ecoli growth
COc1ccccc1C1C(=C(O)c2ccc(C)cc2)C(=O)C(=O)N1CC(C)O (centres undefined),0.72
CCc1cc2c(nc1CC)CCN(CCC(C)=NOC(C)c1cc(-c3c(C)cc(C)cc3C)no1)C2 (centres undefined),0.67
C=CCC(CC(=O)N(CCO)Cc1ccccc1)C(=O)NC(COC(=O)C(CC=C)CC(=O)OC(C)(C)C)C(C)(C)C (centres undefined),0.65
O=C1C2C(c3ccc(Cl)cc3)N3C(=O)N(c4cccc(Cl)c4)C(=O)[C@@]3(Cc3ccc(Cl)cc3)C2C(=O)N1C1CCCCC1 (some centres undefined),0.71
CC(=O)n1cc(C2C=C(C(=O)N3CCN(Cc4ccc5c(c4)OCO5)CC3)OC(OCc3ccc(CO)cc3)C2)c2ccccc21 (centres undefined),0.68&0.73
C=CC1c2cc(C)ccc2N(S(=O)(=O)c2ccc(C)cc2)C(c2ccc(OC(C)=O)cc2)C1(C#N)C#N (centres undefined),0.7
N#CC(=Cc1ccc(C(=O)O)cc1)c1ccccn1,0.66
CCOC(=O)CC1c2cc(F)ccc2S(=O)(=O)N1c1ccccc1 (centres undefined),0.68
O=C(NCCN1CCN(c2ccccc2)CC1)C1CCN(S(=O)(=O)c2cccs2)CC1,0.65
Cc1ccc(NC=C(C#N)c2ccsc2)cc1C,0.71
C=C1CCN(C(CC(C)C)C(=O)NCc2ccccc2)S(=O)(=O)c2ccccc21 (centres undefined),0.68
COc1ccc(C2C=C(C(=O)O)OC(OCc3ccc(CO)cc3)C2)cc1 (centres undefined),0.71
COc1ccc(C(C)=NNC(=O)CNC(=O)C=Cc2ccco2)cc1,0.69
Nc1ncnc2c1nc(Sc1ccc(Cl)cc1)n2C1OC2COP(=O)(O)OC2C1O (centres undefined),0.69
CCCOc1ccc(C(O)=C2C(=O)C(=O)N(CCCOC)C2c2cccnc2)cc1 (centres undefined),0.68
CC[C@]12C(=O)N(C)CC(C3C(=O)N(C)C(=O)C31)N2C(=O)c1ccc(Cl)cc1 (some centres undefined),0.69
CCOC1OC(C(=O)NC2CC2)=CC(c2c[nH]c3ccccc23)C1CCCO (centres undefined),0.66&0.7
CC(C)CC(CN(C)N=O)N(CC(Cc1ccccc1)N(CCc1ccccc1)N=O)N=O (centres undefined),0.73
CN(C)C=C(C#N)C(=O)NN=Cc1ccc(F)cc1,0.69
CCN(CC)C(=O)CSC1=NC(=Cc2ccco2)C(=O)N1c1ccc(OC)c(Cl)c1,0.69
NCCCCC1NC(=O)c2cc([N+](=O)[O-])cc(F)c2NCCCCC(C(N)=O)NC(=O)C(CCC(N)=O)NC1=O (centres undefined),0.7
Cc1ccc(C(=O)NC(=Cc2cccnc2)C(=O)NCc2ccco2)cc1,0.7
C#CCOCCOCCOCCNc1nc(N2CCN(C(=O)Cn3cc(CCO)nn3)CC2)nc(N2CCN(C(=O)C(C(C)C)n3cc(CCO)nn3)CC2)n1 (centres undefined),0.69
COC(=O)N1CC=CC(c2ccc(OC)cc2)N(Cc2ccc(F)cc2)C(=O)C1 (centres undefined),0.7
CCOC(=O)C=Cc1ccccc1S(=O)(=O)NC(C)(C)C,0.69
O=C(O)CC1c2cc(C(F)(F)F)ccc2S(=O)(=O)N1C1CCN(Cc2ccccc2)CC1 (centres undefined),0.66
NCCCCC1NC(=O)c2cc([N+](=O)[O-])cc(I)c2SCC(C(=O)NCC(N)=O)NC(=O)CNC1=O (centres undefined),0.67
O=C1C=C(c2ccc(CO)cc2)CC(c2ccc3c(c2)OCO3)C1 (centres undefined),0.64
CCCCCC=CC1=CC(=O)CC(c2ccc3c(c2)OCO3)C1 (centres undefined),0.7
CC(C)C1C=C(C(=O)O)OC(OCCCCO)C1 (centres undefined),0.64&0.68
CC1CCCC(C)N1Cc1nc(Cc2ccccc2Cl)no1 (centres undefined),0.74
COc1ccc2c(c1)C1C(CO2)C(c2ccccc2)[C@]2(C)C(=O)N(CC3CCCO3)CC(=O)N12 (some centres undefined),0.67
COC(=O)C(CC(C)C)NCc1cccc(CNC(CC(C)C)C(=O)OC)c1 (centres undefined),0.68
CC(C)C[C@@]12C(=O)N(c3cccc(Cl)c3)C(=O)N1C(c1ccc(F)cc1)C1C(=O)N(C3CCCCC3)C(=O)C12 (some centres undefined),0.72
O=C(COc1ccccc1C=C1SC(=O)NC1=O)Nc1ccccc1,0.69
C#CCOC1CC(n2ccc(NC(=O)c3ccccc3)nc2=O)OC1CO (centres undefined),0.65

Exported with each value named: entries from further up.
structure: CC(C)C1C=C(C(=O)O)OC(OCCCCO)C1 (centres undefined)
- Ecoli growth: 0.64&0.68

structure: COc1ccc2c(c1)C1C(CO2)C(c2ccccc2)[C@]2(C)C(=O)N(CC3CCCO3)CC(=O)N12 (some centres undefined)
- Ecoli growth: 0.67

structure: CCCCCC=CC1=CC(=O)CC(c2ccc3c(c2)OCO3)C1 (centres undefined)
- Ecoli growth: 0.7

structure: COC(=O)C(CC(C)C)NCc1cccc(CNC(CC(C)C)C(=O)OC)c1 (centres undefined)
- Ecoli growth: 0.68

Next section.
Molecule,Ecoli growth
COC(=O)C(NC(=O)OC1C(=O)c2cc(Br)ccc2OC1c1cccc(OC)c1)C(C)C (centres undefined),0.71
CCOC1OC(C(=O)N2CCOCC2)=CC(C2CCCCC2)C1CCCO (centres undefined),0.65
O=C(O)C1=CC(c2ccc(C(F)(F)F)cc2)CC(OCc2ccc(CO)cc2)O1 (centres undefined),0.65&0.71
C#CCOCCOCCOCCNc1nc(N2CCN(C(=O)C(CCC(=O)O)n3cc(C(N)C(C)CC)nn3)CC2)nc(N2CCN(C(=O)C(CCC(=O)O)n3cc(C(N)C(C)CC)nn3)CC2)n1 (centres undefined),0.65
NC(CO)c1nnc(C(Cc2ccc(O)cc2)NC(=O)C2CCNCC2)o1 (centres undefined),0.73
COc1cc(C=CC(=O)NCc2ccc3c(c2)cc(C)n3C)cc(OC)c1OC,0.71
NC(=O)C1CC2(CC(c3cccc(NC(=O)C4CCC(=O)N4)c3)=NO2)CN1C(=O)c1ccccc1C(=O)c1ccccc1 (centres undefined),0.69
O=C(CC1CC=CCC(Cc2ccc(F)cc2)C(=O)OCC(Cc2c[nH]c3ccccc23)NC1=O)NCCO (centres undefined),0.65&0.71
CNC(=O)C1CC1C(NC(=O)CNC(=O)OCc1ccccc1)c1ccccc1 (centres undefined),0.64
Nc1nnc(C=Cc2ccccc2)s1,0.67
CCN1C(=O)C2C(c3ccc(C)cc3)N3C(=O)N(c4cccc(Cl)c4)C(=O)[C@@]3(CC(C)C)C2C1=O (some centres undefined),0.7
CCN1C(=O)C2C(c3ccc(-c4ccc(C(C)=O)cc4)c(OC)c3)N3CCC[C@@]3(C(=O)OC)C2C1=O (some centres undefined),0.7
COC(=O)CC1c2cc(F)ccc2S(=O)(=O)N1C(C)C (centres undefined),0.71
CC(C)CC(NC(=O)c1nc[nH]c1C(=O)NCCCCCNC(=O)OC(C)(C)C)C(=O)OC(C)(C)C (centres undefined),0.68
COc1cccc2sc3cc(NCCC4CCCN4C)ccc3c(=O)c12 (centres undefined),0.63
C#CCOCCOCCOCCNc1nc(N2CCN(C(=O)Cn3cc(CCCN=C(N)N)nn3)CC2)nc(N2CCN(C(=O)C(C(C)O)n3cc(CCCCN)nn3)CC2)n1 (centres undefined),0.67
COc1cc(C=NNC(=O)C(=Cc2ccccc2)CCO)ccc1O,0.69
CCOC1OC(C(=O)N2CCN(Cc3ccc4c(c3)OCO4)CC2)=CC(C2CC2)C1CCCO (centres undefined),0.71&0.69
CCC(C)C(C(=O)NCCCCCCCCCCC(=O)N1CCN(C(=O)OC(C)(C)C)CC1)n1cc(CCCCCNC(=O)OC(C)(C)C)nn1 (centres undefined),0.71
CCCCN1CCC2C=CCC(C(=O)NCc3ccc(OC)cc3)C2C1=O (centres undefined),0.69
COC(=O)C1=C(C(=O)OC)C2N(Cc3ccccc3)c3ccccc3[C@@]23CC(CO)N(C(=O)NC2CCCC2)C3=N1 (some centres undefined),0.69
O=C(O)C=C1CCCc2ccccc2C1O (centres undefined),0.65
COc1cc(C=CC(=O)N2CCCN(C(=O)C=Cc3cc(OC)c(OC)c(OC)c3)CC2)cc(OC)c1OC,0.73
CC(=O)c1ccc(C2C[C@@]34CN(C(=O)OC(C)(C)C)S(=O)(=O)C3CC2O4)cc1 (some centres undefined),0.64
O=C(NCc1nc2ccccc2[nH]1)C1=CC(C2CCCCC2)CC(OCc2ccc(CO)cc2)O1 (centres undefined),0.7
C=C1CCN(C(C(=O)OCc2ccc(C)cc2)C(C)C)S(=O)(=O)c2ccccc21 (centres undefined),0.65
CCOC(=O)C1C2COc3cc(OC)ccc3C2N2C(=O)CN(C)C(=O)[C@@]12C (some centres undefined),0.69
COc1ccc([N+]([O-])=Cc2ccoc2)cc1,0.63
CC1(C)SC2C(NC(=O)Cc3ccccc3)C(=O)N2C1C(=O)O (centres undefined),0.71
Nc1ncnc2c1nc(N1CCCCC1)n2C1OC(CO)C(O)C1O (centres undefined),0.68
O=C1C=C(c2cc(F)ccc2F)CC(c2ccc(F)cc2)C1 (centres undefined),0.7
CCOC1OC(C(=O)O)=CC(c2ccc(C(F)(F)F)cc2)C1CCCO (centres undefined),0.7&0.69
CC(=O)NC(CC(=O)NC(CCC(=O)O)C(=O)O)C(=O)O (centres undefined),0.69
CC1CN(C(C)CO)C(=O)Cc2cc(NS(C)(=O)=O)ccc2OC1CN(C)Cc1ccc(Cl)c(Cl)c1 (centres undefined),0.66
[N-]=[N+]=NCCC=CC1NS(=O)(=O)OCC1O (centres undefined),0.71
CCCC(C=Cc1ccc(OC(C)=O)cc1)=C1c2ccccc2C(=O)N1c1ccccc1,0.74
O=C(Cc1ccccc1)NC(Cc1ccccc1)C(=O)O (centres undefined),0.71
C=CCC1C=CC(ON=CC(NS(=O)(=O)c2ccc(C)cc2)C(C)C=CCC(=O)OC)C(CO)O1 (centres undefined),0.72
COc1ccc(C2C=CCN(CC(C)(C)C)CC(=O)N2Cc2ccc(F)cc2)cc1 (centres undefined),0.68
